Compound activity: PubChem BioAssay, several laboratories
Arbovirus anti = antivirals against arbovirus infection; 0.37% of 200,000 active; arbovirus infection cell-based antiviral screen; inhibition, % at 10 µM;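 active means inhibition from about 30%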;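 further: bluetongue infection of BSR cells; cell survival read as ATP light after 72 h; 0% = infected wells without compound and 100% = uninfected wells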
RecA intein inh = inhibitors of M. tuberculosis RecA intein splicing | cell-free RecA intein splicing, fluorescence | inhibition, %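 (about 9 µM by stock and volumes)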 | 0.75% of 290,000 active | P9WHJ3; in the data active means inhibition above about 30%; inconclusive means no clear call, values can overlap the other calls;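 further: 0% = vehicle wells and 100% = reference inhibitor control wells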
Target sequence (P9WHJ3 whole entry, looked up): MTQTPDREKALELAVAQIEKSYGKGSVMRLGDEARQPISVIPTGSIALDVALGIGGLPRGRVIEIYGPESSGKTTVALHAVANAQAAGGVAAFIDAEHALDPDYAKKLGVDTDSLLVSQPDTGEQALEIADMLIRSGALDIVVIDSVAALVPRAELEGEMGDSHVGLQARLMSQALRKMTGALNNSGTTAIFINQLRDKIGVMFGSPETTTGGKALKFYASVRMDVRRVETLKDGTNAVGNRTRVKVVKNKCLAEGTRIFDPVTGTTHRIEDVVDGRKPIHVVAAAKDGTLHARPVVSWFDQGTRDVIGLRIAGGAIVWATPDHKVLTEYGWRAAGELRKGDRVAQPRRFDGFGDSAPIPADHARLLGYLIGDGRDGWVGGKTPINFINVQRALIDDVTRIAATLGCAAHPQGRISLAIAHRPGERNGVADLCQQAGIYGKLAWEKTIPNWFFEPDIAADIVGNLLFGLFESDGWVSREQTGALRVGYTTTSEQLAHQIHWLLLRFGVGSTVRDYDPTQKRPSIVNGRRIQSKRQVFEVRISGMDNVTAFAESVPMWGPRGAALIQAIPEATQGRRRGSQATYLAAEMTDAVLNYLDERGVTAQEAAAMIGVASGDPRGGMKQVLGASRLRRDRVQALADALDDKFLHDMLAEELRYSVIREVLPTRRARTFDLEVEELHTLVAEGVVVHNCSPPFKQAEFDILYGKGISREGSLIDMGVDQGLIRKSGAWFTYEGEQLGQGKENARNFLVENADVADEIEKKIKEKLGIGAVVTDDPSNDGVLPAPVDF
Mtb betalactam = beta-lactam sensitization of Mtb H37Rv; M. tuberculosis H37Rv growth with meropenem, percent inhibition; hits of this screen are not shown here; inhibition, % at 25 µM; 0.27% of 330,000 active;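 active means about 74% or more and at least 40 points above the plate without the antibiotic, then above 30% in a dose series; inconclusive means first-round hits that could not be retested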;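 further: growth measured after seven days incubation then overnight dye step; 0% = bacteria only wells and 100% = bacteria with antibiotic; twin plates without the antibiotic show which effects depend on it; some results filed as inactive read as strong as hits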
YopH inh = blocks Yersinia enterocolitica YopH tyrosine phosphatase; AID 898; inhibition, %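 (about 10 µM by stock and volumes)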; 0.16% of 140,000 active; fluorescence Ex485/Em525;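 active means inhibition of 50% or more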;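 further: controls were vehicle for no effect and minimum signal wells for full effect; inactives centre near -20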
Mtb growth = M. tuberculosis H37Rv growth inhibitors, H37Rv strain (AID 1626). inhibition, % at 10 µM, or IC50 in µM where a hit was titrated. M. tuberculosis H37Rv growth inhibition; higher % means a stronger effect. 0.95% of 220,000 active;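 active means confirmed in a dose series; inconclusive means inhibition above 80% but not taken into the dose series; inactive means below 80% or under 30% at every dose of the series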;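 further: bacteria incubated seven days before Alamar blue readout; 0% = bacteria only wells and 100% = bacteria with antibiotic wells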
Arbovirus anti repeat = recorded beside Arbovirus anti, whose call it bears; inhibition, %; measured here: 10K subset replicate screen; many hits read low in the repeat;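 first of two repeat runs on a subset; 0% = infected and 100% = uninfected wells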
The depositor's hits bear a star; u = inconclusive; x = not tested or not shown. A portion of the library, so the mix of outcomes need not match the whole.

SMILES | Arbovirus anti | RecA intein inh | Mtb betalactam | YopH inh | Mtb growth | others
NC(=O)Cn1nnc(-c2ccccc2NC(=O)c2cnccn2)n1 | 1.3 | 0.1 | 7.4 | -2.3 | -11.2%
O=C(NC(c1ccccc1)c1c(O)ccc2ccccc12)c1ccccc1Cl (stereo not drawn) | -11.2 | 22.1 | u | -36.7 | -4.3%
Cc1ccc(SCc2[nH]nc3c2C2(C(=O)N(C)c4ccccc42)C(C#N)=C(N)O3)cc1 (stereo not drawn) | 3.2 | 10.1 | -6.9 | -11.2 | 8.1%
Cc1ccccc1C(=O)Oc1cccc(Nc2ncnc3ccccc23)c1 | x | 5.0 | -2.7 | -10.9 | 17.2%
COCCNC(=O)C(c1cccs1)N(Cc1cccs1)C(=O)Cn1nnc2ccccc21 (stereo not drawn) | 13.2 | 0.7 | -1.7 | -1.9 | -9.6%
O=C(NC(=S)Nc1ccc([N+](=O)[O-])cc1O)C1CCCCC1 | x | 2.5 | 58.3 | x | x
C/C(=N\Nc1nccnc1Cl)c1c(F)c(F)c(F)c(F)c1F | 3.5 | x | 0.8 | -20.0 | 0.2%
Cc1ccc(C2CC(c3ccc(Cl)cc3)=NNC2=O)cc1 (stereo not drawn) | -1.0 | 1.4 | 0.4 | -22.0 | 5.2%
Cc1cccc(N2CCN(C(=O)c3ccc4c(c3)c(C)c(C)n4C)CC2C)c1 (stereo not drawn) | x | 16.2 | -2.7 | x | x
Cc1ccc(NC(=O)C(C)OC(=O)/C=C/c2ccccc2)cc1S(=O)(=O)N1CCOCC1 (stereo not drawn) | x | -0.5 | 0.1 | x | x
COc1ccnc(N=CNOCc2cccc(C(F)(F)F)c2)c1C#N | -7.5 | -0.5 | -1.4 | x | 1.5%
Cc1cc(Br)ccc1OCC(=O)NNC(=O)Cc1ccccc1 | 0.4 | 1.5 | 0.8 | -38.7 | -10.9%
COc1ccc(NC(=O)C23CC4CC(C2)CC(n2cnc(Br)n2)(C4)C3)c(OC)c1 | 0.7 | x | 29.9 | 8.4 | -5.6%
Cc1ccc2c(c1)-c1[nH]c(=S)ncc1CS2 | -1.6 | x | -3.5 | x | 3.4%
COc1cccc(NC(=O)COC(=O)CCOc2ccccc2OC)c1 | 1.5 | 1.6 | 5.8 | x | 2.9%
Oc1c(CN2CCN(c3ccc(F)cc3)CC2)cc(Cl)c2cccnc12 | -35.8 | x | 89.1 | -40.0 | 51.0%
CN(C)C(=O)c1ccc(NC(=O)c2cncc(Br)c2)cc1 | 10.0 | 1.4 | 1.2 | -28.3 | -1.6%
COC(=O)c1ccc(/C=N/OCC(=O)NC2CCCCCCC2)cc1 | 7.3 | 5.5 | 3.0 | -42.0 | 12.9%
O=C(Nc1cccc(NC(=O)c2ccccc2F)c1)c1ccccc1 | x | 28.0 | 1.8 | x | x
FC(F)(F)c1ccccc1NC(=S)Nc1cccc2cnccc12 | -8.4 | x | x | x | 1.8%
CCc1[nH]nc(C(=O)N2CCCC(N3CCN(c4ccccc4C)CC3)C2)c1C (stereo not drawn) | x | 7.7 | u | x | x
CCOCCOCCC(C(=O)O)P(=O)(c1ccccc1)c1ccccc1 (stereo not drawn) | 4.6 | -4.1 | -5.6 | -10.6 | -0.7%
CC(/C=C/c1ccccc1)=N\NC(=O)Cn1nc(C)cc1C | -0.7 | 8.8 | 2.0 | -2.5 | -7.5%
CC1(C)Cc2nc3sc4c(SCC(=O)NCc5ccccc5)ncnc4c3cc2CO1 | -19.0 | 1.3 | 1.0 | -15.6 | -2.5%
O=C(NC1=NCCS1)c1ccc(Cl)c(S(=O)(=O)N2CCCCCC2)c1 | 10.2 | x | -0.4 | x | 2.1%
(list continues)
SMILES | Arbovirus anti | RecA intein inh | Mtb betalactam | YopH inh | Mtb growth | others
COc1ccc(-c2noc(CCC(=O)NCCc3cccc(C)c3)n2)cc1 | 0.5 | 1.4 | 5.8 | x | -6.9%
COc1ccc(C(=O)Nc2ccc(S(=O)(=O)N3CCOCC3)cc2)cc1[N+](=O)[O-] | x | -2.1 | 3.2 | x | x
CN(C)CCCn1c(=S)[nH]c2sc3c(c2c1=O)CCCC3 | x | 9.8 | -5.3 | x | x
O=C(NCCc1ccc(Cl)cc1)c1cccc(NC2=NC3CS(=O)(=O)CC3S2)c1 (stereo not drawn) | x | -1.4 | -2.4 | x | x
COCCNC(=O)c1onc(CSc2ccccc2F)c1C(=O)O | 5.7 | -3.5 | -14.1 | -23.4 | -4.2%
Cc1nc([N+](=O)[O-])c(N2CCOCC2)n1Cc1ccccc1 | x | -3.4 | -5.3 | x | 6.3%
COc1cc(/C=C(\C#N)C(=O)N2CCCCC2)ccc1O | x | 0.5 | -0.5 | x | x
O=C(Nc1ccc(Cl)cc1)NN1CC(=O)N(c2cccc(C(F)(F)F)c2)CC1=O | x | -1.3 | -1.2 | x | -1.8%
O=C(CCN1C(=O)/C(=C/c2ccccc2Cl)SC1=S)NN1CCOCC1 | x | -0.5 | 1.9 | x | x
O=C(Cc1c(O)c2ccccc2[nH]c1=O)NCc1cccc(F)c1 | 12.0 | 0.0 | 4.7 | -17.0 | -1.1%
CCNC(=S)Nc1ccc(C)c(Cl)c1 | 2.2 | 0.0 | -7.7 | -15.7 | 5.5%
C/C(Cn1cnc([N+](=O)[O-])n1)=N\NC(=O)c1ccccc1 | -5.4 | 3.5 | 0.8 | -8.4 | -9.2%
COc1ccc(-n2cnnc2SCC(=O)Nc2cc(C(C)(C)C)nn2-c2ccccc2)cc1 | 1.4 | 0.8 | 16.1 | -20.1 | -9.1%
COCCCNC(=S)N1CCN(C(=O)c2ccco2)CC1 | -4.2 | 10.0 | -1.6 | -1.9 | 0.6%
O=[N+]([O-])c1cc(Br)c(O)c(/C=N/Nc2nnnn2-c2cccc3ccccc23)c1 | -19.3 | 22.7 | -0.8 | -30.4 | -1.5%
Cc1ccc(C(O)Cn2nc(C)cc2C)cc1 (stereo not drawn) | x | -2.3 | -6.9 | x | x
CCOC(=O)c1ccc(N2C(=O)Cc3ccccc3C2=O)cc1 | x | 11.5 | 87.0 | x | x
O=C(CN1CCC(C(=O)O)CC1)Nc1ccccc1Oc1ccccc1 | x | 1.6 | 2.2 | x | 6.3%
CCOc1ccccc1OCC(=O)OCC(=O)Nc1ncc(Cl)cc1Cl | 5.6 | 2.4 | -5.1 | -40.3 | 7.2%
CCCN(CCC)C(=O)CC(c1ccccc1)c1ccc(C)cc1O (stereo not drawn) | -3.9 | 5.8 | 2.6 | -11.3 | 2.3%
Cc1ccccc1NC(=O)c1cccc(S(=O)(=O)N2CCCCC2)c1 | x | -0.2 | -4.5 | x | x
NC(=O)CC(NC(=O)c1ccccc1)c1ccc(NC2CCC2)c([N+](=O)[O-])c1 (stereo not drawn) | x | -1.1 | -2.4 | x | -8.2%
Cc1[nH]nc2ncc(C(=O)c3cc(F)ccc3O)cc12 | 10.7 | 0.1 | -3.1 | -0.3 | -3.6%
Cc1cc(C(=O)O)ccc1-n1c(C)cc(/C=C2\SC(=O)NC2=O)c1C | x | 1.2 | -0.4 | x | x
O=C(Cc1c(F)cccc1Cl)N1CCCC1 | 1.9 | -0.4 | 3.8 | 3.2 | -2.6%
New compounds follow.
SMILES | Arbovirus anti | RecA intein inh | Mtb betalactam | YopH inh | Mtb growth | others
O=C(Cc1ccc(F)cc1)OCC(=O)N1CCN(S(=O)(=O)c2ccc(Cl)cc2)CC1 | x | 1.8 | -3.9 | x | x
CC1CCCCN1C(=O)C12CCC(C)(/C(=N/O)C1)C2(C)C (stereo not drawn) | -2.4 | 0.6 | -5.6 | -31.7 | -4.5%
CC(C(=O)N(C)C1CCS(=O)(=O)C1)N1C(=O)/C(=C/c2ccc(F)cc2)SC1=S (stereo not drawn) | x | 9.9 | -0.9 | x | x
Cc1ccccc1N(C(=O)Cc1cccs1)C(C(=O)NCC1CCCO1)c1cccnc1 (stereo not drawn) | 3.6 | -0.4 | 0.3 | -33.8 | 0.2%
CS(=O)(=O)N(CC(=O)Nc1ccccc1C(=O)N1CCOCC1)c1cccc([N+](=O)[O-])c1 | x | 0.6 | -1.0 | x | x
O=C(NCc1ccc2c(c1)OCO2)c1ccc(Cl)s1 | -7.7 | -0.9 | 8.0 | x | 7.7%
Cc1ccc(S(=O)(=O)N2CCCCC2C)cc1[N+](=O)[O-] (stereo not drawn) | x | -0.9 | -1.3 | x | x
CCOc1ccc(N2C(=O)CNC2=S)cc1 | 1.6 | -3.1 | 18.6 | x | -2.8%
CC(C)(C)c1nnc(NC(=O)C2CC(=O)N(CCc3ccc(F)cc3)C2)s1 (stereo not drawn) | x | 1.7 | 1.4 | x | x
CCCNC(=O)CSc1nc(Cc2ccccc2)nc2ccccc12 | x | 15.4 | 3.9 | x | x
O=C(Nc1ccccc1Cl)Nc1ccnn1C1CCN(C(=O)c2cscn2)CC1 | x | 11.3 | 6.9 | x | x
CN1C[N+]([O-])=C(c2ccccc2)C1(C)C | -1.2 | 0.9 | -0.3 | -46.8 | 0.7% | Arbovirus anti repeat=-3.0
COc1cccc(-c2[nH]nc3c2C(c2ccoc2)C(C#N)=C(N)O3)c1 (stereo not drawn) | -0.7 | 81.5* | -5.2 | -3.2 | 3.3%
CN1CCCC(OC(=O)c2ccc(C(C)(C)C)cc2)C1 (stereo not drawn) | x | -0.6 | -2.8 | x | x
CCC(C)(C)C1CCC(=NNC(=S)Nc2ccccc2)CC1 (stereo not drawn) | -4.6 | -0.3 | -9.7 | x | 2.6%
CCOC(=O)N1CCC(NC(=O)c2cc(C(=O)Nc3ccc(OCC)cc3)ccc2CO)CC1 | 0.8 | 1.6 | -4.2 | -23.2 | -3.9%
CCOC(=O)c1cnn(-c2nc(-c3ccccc3)nc3c2COC(C)(C)C3)c1N | -8.8 | -0.5 | 3.0 | -13.8 | 4.1%
CC(=O)OCCN(CCOC(C)=O)c1c(C)[nH]c(=O)[nH]c1=O | 1.4 | 2.6 | -1.6 | -26.7 | -2.1%
COC(=O)CSc1nnc(-c2ccc(S(=O)(=O)NCc3ccccc3Cl)cc2)o1 | -4.9 | -0.4 | 98.8 | -9.9 | u
COc1cc(-n2c(=S)[nH]c3ccccc3c2=O)c(Cl)cc1Cl | -4.0 | 1.4 | -4.6 | -25.7 | 9.0%
COc1ccc2c(c1)c(C(=O)N/N=C/c1ccc(OC)c(OC)c1)c(C)n2C | -4.8 | -1.6 | -4.5 | -15.5 | 2.6%
O=C(O)c1ccc(NC(=S)NC(=O)c2ccc(-c3ccc(Br)cc3)o2)cc1 | x | 1.6 | 93.9 | x | x
Cc1cc(Nc2ccc([N+](=O)[O-])cc2)nc2ccccc12 | -2.8 | -1.7 | 6.9 | x | -4.1%
CCOc1cc(/C=N/NC(=O)C(=O)N2CCCC2)ccc1O | 11.1 | -3.9 | -7.1 | x | 4.9%
COc1cc(OC)cc(C(=O)O/N=C(\N)c2ccncc2)c1 | 2.0 | 2.1 | 9.2 | -30.2 | -1.7%
Later entries
SMILES | Arbovirus anti | RecA intein inh | Mtb betalactam | YopH inh | Mtb growth | others
COc1ccc(CC(=O)Nc2cc(C)ccn2)cc1OC | x | -1.2 | 72.6 | x | x
CCCOC(=O)Nc1cccc(C(C)=O)c1 | 2.7 | -0.9 | -10.5 | -24.7 | -1.1%
Cc1cccc(C(=O)NNC(=O)c2ccccc2C)c1 | 2.7 | -0.8 | -1.8 | x | -10.0%
COc1ccc(C2C(C(=O)c3ccco3)=C(O)C(=O)N2c2nnc(C)s2)cc1OC (stereo not drawn) | x | -4.7 | 4.3 | x | x
COCC(=O)NCc1nc2ccccc2[nH]1 | 2.2 | -0.8 | -7.8 | -17.5 | -7.2% | Arbovirus anti repeat=7.7
CCCc1ncc(C(O)(c2ccccc2)c2ccccc2)n1C | -16.4 | 2.3 | 2.9 | x | -1.6%
CC(C)C(OC(=O)c1nsc(Cl)c1Cl)C(=O)NCc1ccccc1 (stereo not drawn) | x | -1.2 | 6.9 | x | x
COc1ccc(/C=C2\Sc3ccc(C(=O)NCC4CCCO4)cc3N(C)C2=O)cc1 (stereo not drawn) | x | 0.2 | 94.0 | x | x
CCOC(=O)COc1ccc(CCNC(C)=O)cc1 | -3.8 | 0.3 | -12.0 | -24.8 | -8.5%
CC(C)c1c(C(=O)N/N=C/c2cccs2)nnn1-c1nonc1N | x | -2.4 | 0.6 | x | x
COCC(=O)Nc1c(C(=O)Nc2ccc3c(c2)OCCO3)oc2ccccc12 | -11.0 | -1.9 | 2.7 | x | -1.0%
OC(CN1CCOCC1)Cn1c2c(c3ccccc31)CCCC2 (stereo not drawn) | x | -0.1 | -9.2 | x | x
